FGF22 binding = shifts melting point of recombinant human FGF22. calls only at 9.99 µM. Q9HCT0. AID 651658. hit rate 1.5% among 340,000. recombinant FGF22 thermal shift, SYPRO orange fluorescence; percent of sucrose octasulfate shift, DMSO zero;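 active = melting point raised past a set limit in the mean and every replicate; three in four hits are not shown here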
Target sequence (Q9HCT0 whole entry, looked up): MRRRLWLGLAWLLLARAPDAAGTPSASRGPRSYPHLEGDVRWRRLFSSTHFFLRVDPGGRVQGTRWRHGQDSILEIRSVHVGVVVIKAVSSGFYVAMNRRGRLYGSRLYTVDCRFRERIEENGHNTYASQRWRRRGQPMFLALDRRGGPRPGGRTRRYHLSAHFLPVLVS
UCH37 inh = inhibitors of human deubiquitinating enzyme UCH37 | Q9Y5K5 | purified proteasome/UCH37, Ub-AMC cleavage fluorescence | inhibition, % (concentration not given with the values) | hit rate 0.33% among 330,000 | AID 588478;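 active = mean of two replicates above 20%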;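 note: 0% = compound-free wells with enzyme and 100% = wells lacking proteasome; stock transfer was 100 nL into about 20 µL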
Target sequence (Q9Y5K5 whole entry, looked up): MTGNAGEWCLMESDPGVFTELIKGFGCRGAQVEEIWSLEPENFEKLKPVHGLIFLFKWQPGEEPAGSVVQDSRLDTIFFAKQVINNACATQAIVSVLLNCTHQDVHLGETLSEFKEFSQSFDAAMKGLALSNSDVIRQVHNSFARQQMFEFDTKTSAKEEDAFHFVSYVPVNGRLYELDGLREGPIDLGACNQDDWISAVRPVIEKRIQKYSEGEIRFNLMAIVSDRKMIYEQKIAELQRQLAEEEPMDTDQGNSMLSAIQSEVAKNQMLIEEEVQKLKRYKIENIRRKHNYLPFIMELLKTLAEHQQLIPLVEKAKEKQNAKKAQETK
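Test system – human UCH37 enzyme supplied as purified proteasome complex · Incubation – 30 min preincubation with enzyme, 25 min cleavage at room temperature · Detection – AMC fluorescence from Ub-AMC cleavage, excitation 355 nm, emission 460 nm · Benchmarks – no-proteasome wells (full inhibition) and compound-free wells (no inhibition)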
Beta2AR agonist = agonists of human beta-2 adrenergic receptor inducing internalization. P07550. Am2.2-beta2AR cells, FAP receptor internalization, flow cytometry; reference of the scale not given here. response, % (no concentration beside the values). hit rate 0.43% among 340,000. AID 504454;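 active = response above a set limit, near 3 SD of response in nonfluorescent compounds, cut at about 42% in these data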;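 note: stock transfer was 100 nL into about 11 µL; a reference agonist was the positive control; negative values mostly stem from fluorescent compounds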
Ecoli growth = E. coli growth inhibition. AID 1053175. OD600 absorbance (no concentration beside the values). Escherichia coli growth, OD600, 23 h; stronger effect = lower value. hit rate 0.21% among 330,000;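 active = OD600 absorbance below the run mean of sample wells minus 3.6 SD, in any replicate, cut at about 0.56 in these data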;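 note: stock transfer was 300 nL into about 60 µL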
ALR H2O2 inh = human ALR oxidase inhibition via reduced H2O2; inhibition, % (no concentration beside the values); hit rate 3.8% among 290,000; purified ALR, DTT oxidation, H2O2 HRP-luminol luminescence;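 active = mean and each replicate at 75% or more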;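 note: stock transfer was 7.5 nL into about 7.5 µL; 0% = neutral wells and 100% = wells with inactivated enzyme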
HNF4A DNA FP = change in binding of human HNF4 alpha to DNA; activity change, % at 10 µM; HNF4a-FITC DNA binding, fluorescence polarization, 1 h; hit rate 0.3% among 360,000; P41235; AID 1224865; in the data active = activity change above about 30%, passing the limit was not always enough;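 note: controls were the assay level and a saturating level of protein; the project sought stronger binding though the title names inhibitors; some compounds called inactive have numbers as strong as hits; positive values seem to mean higher polarization but the record does not say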
Target sequence (P41235 whole entry, looked up): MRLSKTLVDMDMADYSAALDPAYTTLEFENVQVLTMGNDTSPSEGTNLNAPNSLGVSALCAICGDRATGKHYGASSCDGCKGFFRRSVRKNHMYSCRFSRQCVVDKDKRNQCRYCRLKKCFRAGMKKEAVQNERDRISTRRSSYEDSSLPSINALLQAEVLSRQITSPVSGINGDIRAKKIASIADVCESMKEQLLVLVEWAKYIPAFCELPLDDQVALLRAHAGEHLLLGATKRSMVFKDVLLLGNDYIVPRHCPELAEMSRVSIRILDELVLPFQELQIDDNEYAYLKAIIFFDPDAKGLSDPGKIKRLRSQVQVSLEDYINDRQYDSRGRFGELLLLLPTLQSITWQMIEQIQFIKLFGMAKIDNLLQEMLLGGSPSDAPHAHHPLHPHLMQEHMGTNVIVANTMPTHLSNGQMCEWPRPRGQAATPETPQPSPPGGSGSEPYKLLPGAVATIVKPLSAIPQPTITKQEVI
LANA-H2B inh = blocks KSHV LANA binding to histone H2A/H2B | Q9QR71 | cell-free LANA-H2A/H2B peptide, fluorescence polarization | inhibition, % (no concentration beside the values) | hit rate 0.6% among 320,000 | AID 2629; in the data active = inhibition mostly above about 10%, no sharp cut-off; inactive = mostly below about 6.7%;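 note: stock transfer was 7.5 nL into about 10 µL; 0% = median of vehicle wells and 100% = median of positive control wells; one replicate is shown; the record names a cut of 25% in any replicate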
* marks the source's active call; other numbers are inactive results; i = inactive; · = not tested or not shown. Some of the compounds tested; rates above refer to the full screens.

SMILES | FGF22 binding | UCH37 inh | Beta2AR agonist | Ecoli growth | ALR H2O2 inh | HNF4A DNA FP | LANA-H2B inh
CSc1ccccc1C(=O)NCCS(=O)(=O)N1CCN(c2ccc(F)cc2)CC1 | i | 1.5 | -1 | 0.68 | 6 | -2.0 | -2.0
Cc1nc2cc(NC(=O)COc3ccc(C#N)cc3)ccc2n1-c1ccccc1 | · | 1.1 | -10 | 0.68 | -2 | -1.5 | 1.7
Cc1ccc(-n2cnc3c(=O)[nH]cnc32)cc1 | i | 2.7 | 2 | 0.7 | · | 0.8 | ·
COC(=O)C(NC(=O)c1ccccc1)(Nc1nccs1)C(F)(F)F (stereo unspecified) | · | -1.4 | -2 | 0.71 | 0 | 2.4 | 2.1
Cc1ccc(CC(=O)NNC(=O)c2cccs2)cc1C | i | 4.2 | -7 | 0.68 | · | -0.8 | ·
CCOC(=O)N1CCN(Cc2nc3cc(NC(=O)c4ccco4)ccc3n2CC)CC1 | i | 5.0 | -13 | 0.72 | 1 | -2.2 | -3.8
CN(C)S(=O)(=O)c1cccc(NC(=O)c2ccc(S(=O)(=O)N3CCCCC3)cc2)c1 | i | 1.3 | 6 | 0.68 | -6 | -0.2 | -7.3
CN(C)C(=S)NC(=S)Nc1ccc2ccccc2c1 | i | · | -1 | · | · | 2.2 | ·
Cc1cc(-c2csc(N)n2)c(C)n1C | · | -1.3 | 3 | 0.74 | -26 | 13 | -8.0
Cc1ccc(C2NC(=S)NC3=C2N2CCC3CC2)cc1 (stereo unspecified) | · | -1.5 | -1 | 0.75 | -7 | -0.1 | -0.4
CC(=O)N1CCN(Cc2nc3cc(NC(=O)c4ccc(Cl)cc4)ccc3n2C)CC1 | i | 2.6 | -6 | 0.68 | 13 | 2.2 | 2.4
CC(=O)Nc1cccc(OCC(=O)Nc2ccc(F)cc2)c1 | · | 0.4 | 1 | 0.66 | -8 | -3.4 | 2.2
CC(Oc1ccccc1)C(=O)Nc1cc(Cl)ccc1-n1cncn1 (stereo unspecified) | i | 4.3 | -3 | 0.69 | · | 0.6 | ·
C/C=C/n1ccnc1CC(O)(c1ccccc1)c1ccc(C)cc1 (stereo unspecified) | i | 0.0 | -6 | 0.7 | 1 | -1.3 | 1.1
C=CCN1C=CC(=C/C=C(/C#N)C(=O)OCC)C=C1 | · | 32* | -27 | 0.73 | 84* | 178 | -49
COc1ccccc1NS(=O)(=O)c1ccc2c(c1)CCN2C(=O)CCC(=O)O | i | 2.4 | 1 | 0.69 | · | 0.6 | 3.1
CN1CCN(C(=O)c2cnn(-c3ccccc3)c2NC(=O)c2ccccc2Br)CC1 | i | 4.7 | 2 | 0.71 | 14 | 0.6 | 1.7
O=C(Nc1cccc2ccccc12)c1ccccc1NS(=O)(=O)c1cccc2cccnc12 | i | 7.2 | 11 | 0.73 | -3 | -2.5 | -2.7
CCCCC(C(=O)O)C(C)CC(=O)NNC(=O)c1ccco1 (stereo unspecified) | i | -0.1 | 8 | 0.7 | -1 | 3.5 | -0.4
CC(NC(=O)COc1ccccc1)C(=O)NCc1ccccc1Cl (stereo unspecified) | i | 1.6 | -3 | 0.72 | -22 | 2.8 | -1.3
Cc1cccc(-n2cc(C(=O)O)c(=O)cc2C)c1 | i | 3.4 | -1 | 0.7 | -5 | 2.7 | 4.0
O=C(NC1CCCCC1)N1CCC(c2nc(-c3ccc(S(=O)(=O)N4CCCC4)cc3)no2)CC1 | i | 0.5 | 7 | 0.66 | · | 2.9 | 2.6
O=C(CCS(=O)(=O)Cc1ccccc1F)NCCc1ccc(Cl)cc1 | i | 1.4 | -10 | 0.64 | -7 | -5.3 | 5.9
CCOc1ccc(Br)cc1S(=O)(=O)Nc1ccc(Cl)c(S(=O)(=O)N(C)C)c1 | · | 6.2 | 5 | 0.68 | 1 | -1.9 | 2.4
Cc1ccccc1N(C(=O)Cc1c[nH]c2ccccc12)C(C(=O)NC1CCCCC1)c1ccco1 (stereo unspecified) | · | 1.4 | 3 | 0.66 | · | 0.6 | -3.2
COc1ccc(NC(=S)N2C3CCC2CC(NC(=O)NC24CC5CC(CC(C5)C2)C4)C3)c(OC)c1 (stereo unspecified) | i | 2.9 | -1 | 0.63 | -12 | -5.8 | 2.4
S=C(NC1CCCCC1)N1CCCCC1 | i | 0.4 | 10 | 0.69 | 3 | 1.8 | -4.7
Cc1cc(C(=O)CSc2nc(N)cc(N)n2)c(C)n1C1CC1 | i | 2.1 | 3 | 0.66 | 47 | 1.2 | 0.6
CC(=O)c1cccc(NC(=O)c2csc(-n3nc(C)cc3C(F)(F)F)n2)c1 | · | 3.0 | 6 | 0.67 | · | 2.2 | 0.4
O=C(NCC(=O)N(CCN1CCOCC1)C(C(=O)NC1CCCC1)c1cccs1)c1ccco1 (stereo unspecified) | · | 2.6 | -12 | 0.76 | 0 | 4.7 | 4.3
CCC(Sc1nc(C)cc(=O)[nH]1)C(=O)Nc1nc(-c2ccccc2)cs1 (stereo unspecified) | · | 1.8 | 6 | 0.67 | 48 | 1.0 | -3.3
CN(Cc1ccc(OC(F)F)cc1)C(=O)c1ccccc1Sc1ccccc1C#N | i | -1.8 | 15 | 0.63 | -6 | -1.2 | 1.0
O=C(Nc1cccc(C(=O)Nc2ccc(Cl)cn2)c1)c1ccccc1 | i | 1.2 | 2 | 0.69 | 2 | -0.4 | -0.3
CCOc1ccc(-c2cc(C(=O)NN=C3CCN(C)CC3)[nH]n2)cc1 | i | 3.8 | 30 | 0.69 | -25 | -0.2 | -3.3
CC(C)NC(=O)CSc1nnc(-c2ccco2)n1N | · | -0.8 | 3 | 0.67 | -6 | 1.3 | 0.7
CCN(Cc1ccccc1)S(=O)(=O)c1cc(C(=O)O)ccc1OC | i | 2.3 | 9 | 0.69 | 4 | 5.7 | -3.3
Cc1ccccc1OCC(=O)N/N=C/c1cccn1C | · | · | 5 | · | · | 2.2 | -1.3
Cc1cccc(CN2CCN(Cc3cnn(-c4ccccc4F)c3)CC2CCO)n1 (stereo unspecified) | i | 1.6 | 2 | 0.64 | -10 | -1.9 | 5.6
Cc1ccccc1C(=O)c1cccn1CC(=O)NCC(C)c1ccccc1 (stereo unspecified) | i | 0.1 | -2 | 0.72 | -6 | 4.3 | -6.3
COc1ccc(CNS(=O)(=O)c2ccc(NC(=O)N3CCCCC3)cc2)cc1 | i | 0.8 | 14 | 0.7 | -2 | 6.2 | 0.8
COc1ccc(OCc2cc(C(=O)NC(C)Cc3cnccn3)no2)c(Cl)c1 (stereo unspecified) | i | 1.9 | -3 | 0.7 | · | 6.3 | -0.3
Cc1ccc(CN2CCS(=O)(=O)CC2)o1 | i | 4.0 | 0 | 0.65 | -3 | 1.3 | -5.9
C=CCn1nnnc1-c1cccc(Cl)c1 | i | 1.4 | 2 | 0.66 | -4 | -0.2 | -4.6
COc1ccc(C=NNc2nc3ccccc3s2)cc1 | i | -2.9 | -1 | 0.69 | · | 0.6 | ·
S=C(Nc1ccc(Br)cc1)NC1CCCCC1 | i | -0.3 | 0 | 0.67 | 26 | 1.9 | 4.2
COc1ccc(N(CC(=O)N2CCN(c3ccccc3F)CC2)S(=O)(=O)c2ccc(C)cc2)cc1 | i | -1.6 | -6 | 0.69 | 0 | -1.1 | 0.4
NC(=O)C1CC(=O)N(Cc2ccc3c(c2)OCO3)C(=Nc2ccccc2)S1 (stereo unspecified) | i | 2.6 | -5 | 0.67 | -2 | 0.6 | 2.5
COc1cccc(-c2coc3cc4oc(=O)c(CCC(=O)O)c(C)c4cc23)c1 | i | -8.1 | 9 | 0.68 | · | 2.6 | 2.4
COc1ccc(COC(=O)c2sc3nc4n(c(=O)c3c2C)CCC4)cc1 | i | · | -4 | · | 32 | -0.3 | 0.0
CC1CCCN(C(=O)Nc2cccc(NC(=O)N3CCCC(C)C3C)c2)C1C (stereo unspecified) | · | 5.3 | 5 | 0.69 | -30 | 0.1 | 2.7
O=C(/C=C/c1ccco1)OCn1nnc2ccccc2c1=O | i | 0.0 | 1 | 0.71 | 4 | -5.7 | -1.2
COc1ccc(OC)c(NC(=O)C2CCCN2S(=O)(=O)c2cccc3nsnc23)c1 (stereo unspecified) | i | 2.5 | 2 | 0.63 | -7 | -0.4 | -2.1
Cc1ccc(C(=O)Nc2nnc(-c3cccs3)s2)cc1C | · | -8.1 | 1 | 0.78 | 0 | 2.7 | -0.5
Cc1ccc(NC(=O)CS(=O)Cc2nc(-c3ccc(C)cc3)oc2C)cc1 (stereo unspecified) | i | 0.3 | 0 | 0.74 | 99* | -1.6 | 0.8
COc1ccccc1N1CCN(C(=O)CCc2nnc3ccc(N4CCC(C)CC4)nn23)CC1 | i | 1.7 | 1 | 0.7 | 6 | -1.3 | -10
O=C(Nc1cccc(-c2csc(Nc3ccc(Cl)cc3)n2)c1)c1cc([N+](=O)[O-])cc(C(F)(F)F)c1 | i | 0.9 | 13 | 0.72 | 0 | 0.2 | -4.3
O=C(NC(=S)N(Cc1ccccc1)c1ccccn1)C1CCCCC1 | i | 0.6 | 9 | 0.61 | 99* | 0.1 | -7.0
COc1ccc(-c2noc(=O)[nH]2)cc1 | · | 0.3 | -1 | 0.71 | -8 | 2.6 | -4.0
Cc1cc(NC(=O)c2cc3ccccc3o2)ccc1NC(=O)c1ccccc1 | i | 0.1 | 1 | 0.66 | · | -2.7 | 3.8
COc1cccc(C(=O)Nc2nnc(SCC(=O)Nc3ccc(NC(C)=O)cc3)s2)c1 | i | 5.1 | 3 | 0.62 | -16 | 3.4 | 4.0

More records:
SMILES | FGF22 binding | UCH37 inh | Beta2AR agonist | Ecoli growth | ALR H2O2 inh | HNF4A DNA FP | LANA-H2B inh
COC(=O)C1=C(C)Nc2c(c(=O)n(C)c(=O)n2C)C1c1cccnc1 (stereo unspecified) | · | 1.1 | 0 | 0.72 | 38 | 3.9 | -4.8
COc1cccc2cc(C(=O)NCCc3ccccc3)oc12 | i | -1.1 | 2 | 0.7 | -7 | 2.2 | 4.4
CC(COc1ccccc1)N1CCC(CO)(CCc2ccccc2)CC1 (stereo unspecified) | i | 0.5 | 1 | 0.64 | 0 | -0.8 | -0.7
CCCc1ccc(S(=O)(=O)N(C)S(=O)(=O)c2ccc(F)cc2)cc1 | i | · | 2 | · | 2 | -0.8 | 4.5
COc1ccc(CNC(=O)c2ccc(S(=O)(=O)N3CCCC3)cc2)cc1OC | · | 2.4 | 0 | 0.78 | -4 | 0.3 | 0.2
COc1ccc(C(=O)CSc2nc(C)cc(C)n2)cc1[N+](=O)[O-] | i | 3.9 | -7 | 0.69 | 7 | -2.5 | -3.5
COc1ccc2nc(NC(=O)c3ccoc3C)sc2c1 | i | -14 | 8 | 0.68 | -4 | 0.2 | 9.0
O=C(COC(=O)[C@@H]1CCCN1S(=O)(=O)c1ccc(Cl)cc1)NCC(F)(F)F | · | 0.8 | 5 | 0.66 | 5 | 0.4 | -2.4
Cc1sc2ncnc(N/N=C/c3cccc(O)c3)c2c1C | · | · | -2 | · | 11 | 3.2 | 4.0
CSc1nnc(-c2ccc(C(F)(F)F)nc2C)o1 | i | 4.5 | 1 | 0.66 | -3 | -1.6 | 4.3

High-throughput results deposited in PubChem BioAssay by several laboratories.
